# MITF inhib = inhibitors of MITF, primary screen, MITF inhibitor project, cell-based, luminescence | TRPM1 promoter luciferase, 24 h | inhibition, % (no concentration beside the values) | 37,000 compounds, 0.28% hits;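 active = most replicates at 85% or more, or half of them and the mean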;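 also: human melanocyte line stably carrying TRPM1 promoter luciferase reporter; 0% = vehicle wells and 100% = a positive control; the first replicate is given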
# PD-1 reversal = activators reversing PD-1 mediated T-cell inhibition, primary screen, luminescence, primary human CD4 T cells, PD-L1 beads. CellTiter-Glo 96 h. 29,000 tested, under 10 active. activation, % (concentration not given with the values);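 active = replicate mean of 50% or more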;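 also: 0% = median vehicle wells and 100% = positive control; 100 nL library stock added to about 50 µL; numbers are from one replicate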
# YB-1 expr inh = inhibitors of YB-1 gene expression, primary screen, cell-based, fluorescence; U2OS, qRT-PCR YB-1 vs CDIP delta delta Cp, 16 h; active compounds read high; zero = DMSO, each unit about twofold; delta delta Cp (YB-1 minus CDIP) (concentration not given with the values); 30,000 compounds, 0.37% hits; AID 434959, 2010;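 active = delta delta Cp rounded down to an integer at or above 3, about 3 SD of DMSO wells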;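 also: higher means less YB-1 transcript or more CDIP transcript relative to DMSO; stock transfer was 100 nL into about 100 µL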
# Hedgehog inh = Hedgehog pathway signaling inhibitors, primary screen, luminescence, Shh-LIGHT2 cells, Gli-luciferase | Shh-LIGHT2 Gli-luciferase reporter, 30 h | inhibition, % (no concentration beside the values) | 22,000 compounds, 2.1% hits | AID 2313, 2010;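 active = replicate mean of 65% or more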;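 also: pathway switched on by Shh-conditioned medium diluted 1 in 25 in low serum; 100 nL library stock added to about 40 µL; 0% = median of neutral wells and 100% = positive control level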
# * marks the source's active call; other numbers are inactive results; · = not tested or not shown.
# Sequence of screens: MITF inhib, PD-1 reversal, YB-1 expr inh, Hedgehog inh
- CCC1(CC)C(=O)c2cc3ccccc3cc2C1=O
→ 4, 0.2, -0.47, -11
- C[C@@H]1CN([C@@H](C)CO)C(=O)c2cc(NC(=O)CCC(F)(F)F)ccc2O[C@H]1CN(C)Cc1ccc(Oc2ccccc2)cc1
→ 1, 1.6, -0.31, ·
- O=C(Nc1ccccc1C(=O)N1CCOCC1)c1noc2c1CCCC2
→ -3, 1.4, ·, ·
- C[C@H]1CN([C@@H](C)CO)C(=O)c2cccc(NC(=O)Nc3ccc(F)cc3)c2O[C@@H]1CN(C)Cc1ccc(Oc2ccccc2)cc1
→ 15, ·, -0.088, -8
- Cn1c(=O)c2c(nc(NCCN)n2C)n(C)c1=O
→ 3, 1.7, ·, ·
- C[C@H]1CN([C@@H](C)CO)C(=O)c2cccc(NC(=O)Nc3ccc(C(F)(F)F)cc3)c2O[C@@H]1CN(C)S(=O)(=O)c1ccc(F)cc1
→ -13, -1.4, 0.15, -30
- COc1ccc(S(=O)(=O)Nc2ccc3c(c2)C(=O)N([C@H](C)CO)C[C@H](C)[C@@H](CN(C)CC2CCCCC2)O3)cc1
→ 13, 1.6, -0.01, 3
- COc1cccc(C(=O)NC(c2ccc(Cl)cc2)c2c(O)ccc3ccccc23)c1 (stereo not drawn)
→ 102*, -2.0, ·, ·
- O=C(CSc1nnc(-c2cccnc2)n1C1CCCCC1)Nc1ccc(Cl)cc1
→ -13, -5.5, ·, ·
- COc1ccc(S(=O)(=O)Nc2ccc3c(c2)C(=O)N([C@@H](C)CO)C[C@@H](C)[C@@H](CN(C)S(=O)(=O)c2cn(C)cn2)O3)cc1
→ 3, 0.4, 0.4, 9
- Cc1noc(C)c1S(=O)(=O)N(C)C[C@@H]1Oc2c(cccc2N(C)C)C(=O)N([C@H](C)CO)C[C@H]1C
→ -13, 1.4, 0.22, -3
- CC(C)NC(=O)Nc1ccc2c(c1)C(=O)N([C@H](C)CO)C[C@H](C)[C@H](CN(C)Cc1ccncc1)O2
→ -3, ·, 0.33, ·
- COc1cccc(N2C(=O)CC(SCC(=O)Nc3ccc4ccccc4c3)C2=O)c1 (stereo not drawn)
→ -12, -3.9, -1.2, 4
- C[C@H]1CN([C@@H](C)CO)C(=O)c2cc(NC(=O)C3CC3)ccc2O[C@H]1CN(C)S(=O)(=O)c1ccc(Cl)cc1
→ -9, 2.0, -0.8, ·
- C[C@H]1CN([C@@H](C)CO)C(=O)Cc2cc(NS(C)(=O)=O)ccc2O[C@H]1CN(C)S(=O)(=O)c1cccs1
→ -2, ·, -0.061, -2
- COc1ccc(S(=O)(=O)Nc2cccc3c2O[C@H](CN(C)S(=O)(=O)c2ccc(OC)cc2)[C@H](C)CN([C@H](C)CO)C3=O)cc1
→ -8, ·, -0.8, -43
- Cc1ccc(S(=O)(=O)N(C)C[C@@H]2Oc3c(cccc3N(C)C)C(=O)N([C@H](C)CO)C[C@H]2C)cc1
→ 5, ·, -0.49, -22
- Cc1ccc(-c2cn3c4ccccc4nc3n2CCN2CCOCC2)cc1
→ 6, -2.6, ·, ·
- CCC/C=C/C(=O)OC1C(O)C23C(O)OC4(CCC5C6(C)CCC(OC7OC(C(=O)O)C(O)C(OC8OC(CO)C(O)C(O)C8OC8OC(C)C(O)C(O)C8OC8OCC(O)C(O)C8O)C7OC7OC(CO)C(O)C(O)C7O)C(C)(C)C6CCC5(C)C4(C)CC2OC(C)=O)C3CC1(C)C (stereo not drawn)
→ ·, ·, 3.5*, 104*
- O=c1cc(CSc2nc3sc4c(c3c(=O)n2Cc2ccco2)CCC4)[nH][nH]1
→ 7, -0.5, ·, ·
- C[C@H]1CN([C@@H](C)CO)C(=O)c2cccc(NS(C)(=O)=O)c2O[C@H]1CN(C)Cc1ccccc1
→ -10, 0.7, -0.88, -1
- COC(=O)/C=C/c1cn(C2OCC(CO)C2O)c(=O)[nH]c1=O (stereo not drawn)
→ -4, 0.4, -0.51, -32
- C[C@@H]1CN([C@@H](C)CO)C(=O)c2cc(NS(C)(=O)=O)ccc2O[C@H]1CN(C)S(C)(=O)=O
→ -6, 1.1, 0.0076, -11
- C[C@H]1CN([C@@H](C)CO)C(=O)Cc2cc(NC(=O)Nc3ccc(C(F)(F)F)cc3)ccc2O[C@@H]1CN(C)S(=O)(=O)c1ccccc1
→ 26, 2.1, 0.38, ·
- Cc1ccc(S(=O)(=O)Nc2ccc3c(c2)C(=O)N([C@@H](C)CO)C[C@@H](C)[C@@H](CN(C)Cc2ccc(C(F)(F)F)cc2)O3)cc1
→ 27, -1.1, 0.29, ·
- Cc1ccc(NC(=O)CSc2n[nH]c(CC(C)C)n2)cc1
→ -6, 2.2, ·, ·
- C[C@@H]1CN([C@H](C)CO)C(=O)Cc2cc(NC(=O)Cc3cn(C)c4ccccc34)ccc2O[C@@H]1CN(C)C(=O)Nc1ccccc1
→ 6, 0.4, -0.066, -10
- Cc1noc(C)c1S(=O)(=O)Nc1cccc2c1O[C@@H](CN(C)C(=O)Nc1ccc(F)cc1)[C@@H](C)CN([C@@H](C)CO)C2=O
→ -6, ·, -0.063, -9
- C[C@H](CO)N1C[C@H](C)[C@@H](CN(C)C(=O)Nc2ccc(C(F)(F)F)cc2)Oc2ccc(NC(=O)Nc3cccc4ccccc34)cc2C1=O
→ 20, -4.1, -0.044, -33
- Cc1ccc(S(=O)(=O)Nc2cccc3c2O[C@@H](CN(C)Cc2ccncc2)[C@H](C)CN([C@@H](C)CO)C3=O)cc1
→ -3, ·, -0.13, 6
- COc1ccc(OCC(O)Cn2nc(C)cc2C)cc1 (stereo not drawn)
→ 2, 0.9, -0.34, -8
- C[C@@H]1CN([C@@H](C)CO)C(=O)c2cc(N(C)C)ccc2O[C@H]1CN(C)Cc1ccc(Oc2ccccc2)cc1
→ 2, -3.3, -0.066, 1
- COc1cc2c(cc1-c1coc3cc(O[C@@H]4O[C@H](CO)[C@@H](O)[C@H](O)[C@H]4O)ccc3c1=O)OCO2
→ -2, 0.5, 1.7, -6
- COc1ccccc1NC(=O)CCC(=O)c1ccc(C)cc1
→ -3, -0.9, ·, ·
- C[C@H]1CN([C@@H](C)CO)C(=O)Cc2cc(NC(=O)Cn3cnnn3)ccc2O[C@@H]1CN(C)Cc1ccc(C(F)(F)F)cc1
→ -13, ·, -0.29, 33
- C[C@@H]1CN([C@H](C)CO)C(=O)Cc2cc(NC(=O)Nc3ccccc3)ccc2O[C@@H]1CN(C)S(=O)(=O)c1ccc(F)cc1
→ -2, ·, 0.035, -3
- COc1cc(OC)c(C(=O)/C=C/c2ccccc2)c(O)c1O
→ 28, 0.5, -0.47, 12
- O=c1cc(-c2ccccc2)oc2c(O)c(O)ccc12
→ -35, ·, 0.14, -1
- C[C@H]1CN([C@@H](C)CO)C(=O)c2cccc(NC(=O)NC3CCCCC3)c2O[C@@H]1CN(C)Cc1ccc2c(c1)OCO2
→ -4, 1.4, 0.08, -5
- C[C@H]1CN([C@@H](C)CO)C(=O)c2cc(NC(=O)C3CCCCC3)ccc2O[C@@H]1CN(C)CC1CCCCC1
→ -10, 0.7, -0.27, ·

# Reformatted: entries from further up
C[C@H]1CN([C@@H](C)CO)C(=O)Cc2cc(NC(=O)Cn3cnnn3)ccc2O[C@@H]1CN(C)Cc1ccc(C(F)(F)F)cc1
- MITF inhib: -13
- PD-1 reversal: ·
- YB-1 expr inh: -0.29
- Hedgehog inh: 33

C[C@@H]1CN([C@H](C)CO)C(=O)Cc2cc(NC(=O)Nc3ccccc3)ccc2O[C@@H]1CN(C)S(=O)(=O)c1ccc(F)cc1
- MITF inhib: -2
- PD-1 reversal: ·
- YB-1 expr inh: 0.035
- Hedgehog inh: -3

# Carrying on.
# Sequence of screens: MITF inhib, PD-1 reversal, YB-1 expr inh, Hedgehog inh
- C[C@H](CO)N1C[C@H](C)[C@@H](CN(C)C(=O)Nc2ccc(F)cc2)Oc2ccc(NC(=O)CCCCCC(=O)Nc3ccccc3N)cc2C1=O
→ -26, 1.9, 0.36, ·
- C[C@H](CO)N1C[C@H](C)[C@@H](CN(C)C(=O)Nc2ccc3c(c2)OCO3)Oc2c(NC(=O)Nc3ccc(F)cc3)cccc2C1=O
→ -6, 0.0, -0.11, -11
- Cc1ccc(S(=O)(=O)Nc2ccc3c(c2)C(=O)N([C@@H](C)CO)C[C@H](C)[C@@H](CN(C)CC2CC2)O3)cc1
→ -3, 1.4, -0.6, 11
- C[C@@H]1CN([C@@H](C)CO)C(=O)c2cccc(NC(=O)NC3CCCCC3)c2O[C@H]1CN(C)S(=O)(=O)c1ccc(F)cc1
→ 8, -0.1, -0.15, 27
- C[C@@H]1CN([C@H](C)CO)C(=O)c2cccc(NC(=O)c3ccncc3)c2O[C@@H]1CN(C)C(=O)Nc1ccc(C(F)(F)F)cc1
→ -3, 0.2, 0.32, -9
- CC1(C)CC[C@]2(C(=O)O[C@@H]3O[C@H](CO)[C@@H](O)[C@H](O)[C@H]3O)CC[C@]3(C)C(=CCC4[C@@]5(C)CC[C@H](O[C@@H]6O[C@H](C(=O)O)[C@@H](O)[C@H](O)[C@H]6O)[C@@](C)(CO)C5CC[C@]43C)C2C1 (stereo partly drawn)
→ 15, -0.7, 1.1, -4
- C[C@@H]1CN([C@@H](C)CO)C(=O)c2cc(NS(=O)(=O)c3ccc(F)cc3)ccc2O[C@H]1CN(C)Cc1ccc(-c2ccccc2)cc1
→ 21, ·, 0.51, -6
- COc1cc(C2OC(c3cc(OC)c(OC)c(OC)c3)C(C)C2C)cc(OC)c1OC (stereo not drawn)
→ 8, 0.7, -0.13, -9
- Cc1cc2c(=O)n(C)c(SCC(=O)c3cc4ccccc4o3)nc2s1
→ 11, 0.5, ·, ·
- C[C@@H]1CN([C@H](C)CO)C(=O)Cc2cc(NS(=O)(=O)c3cccs3)ccc2O[C@@H]1CN(C)C
→ -17, 0.0, -0.3, -1
- C[C@H]1CN([C@@H](C)CO)C(=O)c2cc(NS(=O)(=O)c3ccccc3)ccc2O[C@@H]1CN(C)S(=O)(=O)c1cccs1
→ 2, -0.2, -0.1, -15
- CNC[C@H]1Oc2ccc(NS(=O)(=O)c3ccc(OC)cc3)cc2C(=O)N([C@@H](C)CO)C[C@@H]1C
→ -3, ·, 0.052, 18
- COc1ccc(S(=O)(=O)N(C)CC(=O)Nc2ccc3c(c2)OCCO3)cc1Cl
→ 3, 1.8, ·, ·
- Cc1ccc(S(=O)(=O)N(C)C[C@H]2Oc3c(NS(=O)(=O)c4ccc(Cl)cc4)cccc3C(=O)N([C@H](C)CO)C[C@H]2C)cc1
→ -1, 0.4, 0.074, 2
- C[C@@H]1CCCCO[C@H](CN(C)C(=O)CCC(F)(F)F)[C@@H](C)CN([C@H](C)CO)C(=O)c2cc(NS(=O)(=O)c3ccc(F)cc3)ccc2O1
→ 6, -0.3, 0.18, 22
- Cc1ccc(-n2sc3ccccc3c2=O)cc1
→ 34, -5.7, -0.29, 10
- COc1cccc(OCCCCSc2ncccn2)c1
→ -95, 2.5, ·, ·
- CC(=O)c1cccc(NC(=O)CSc2nc(-c3ccc(F)cc3)cs2)c1
→ -20, -1.0, ·, ·
- CC(C)NC(=O)N(C)C[C@@H]1Oc2c(NS(C)(=O)=O)cccc2C(=O)N([C@H](C)CO)C[C@@H]1C
→ 3, 1.1, -0.4, -71
- C[C@H]1CN([C@@H](C)CO)C(=O)c2cc(NC(=O)Cc3ccccc3)ccc2O[C@@H]1CN(C)S(=O)(=O)c1cccs1
→ -7, -1.1, 0.35, ·
- CC(C)NC(=O)N(C)C[C@H]1Oc2ccc(N(C)C)cc2CC(=O)N([C@@H](C)CO)C[C@H]1C
→ 0, 2.1, 0.13, -13
- C[C@@H]1CN([C@H](C)CO)C(=O)c2cccc(NS(=O)(=O)c3ccc(F)cc3)c2O[C@@H]1CN(C)Cc1ccc(C(=O)O)cc1
→ -5, 1.1, -0.086, -4
- C[C@H]1CN([C@@H](C)CO)C(=O)Cc2cc(NS(=O)(=O)c3ccc(F)cc3)ccc2O[C@@H]1CN(C)Cc1ccc(-c2ccccc2)cc1
→ 31, ·, 0.19, 40
- COc1ccc(NC(=O)Nc2ccc3c(c2)C(=O)N([C@@H](C)CO)C[C@H](C)[C@H](CN(C)C(=O)Nc2ccc(OC)cc2)O3)cc1
→ 0, 1.1, 0.055, -18
- CCc1nn(C)c2c(=O)c(=O)c2n(C)[nH]1
→ -6, 0.1, -0.092, -34
- C[C@@H]1CN([C@@H](C)CO)C(=O)c2cc(NC(=O)Nc3ccccc3)ccc2O[C@H]1CN(C)C(=O)NC1CCCCC1
→ -6, 0.3, -0.27, 20
- C[C@@H]1CN([C@H](C)CO)C(=O)c2cc(NC(=O)Nc3cccc4ccccc34)ccc2O[C@@H]1CN(C)C(=O)Nc1ccc(F)cc1
→ 0, -0.8, -0.19, 17

# Complete entries, looked up by structure. Order of values: MITF inhib	PD-1 reversal	YB-1 expr inh	Hedgehog inh
# C[C@H](CO)N1C[C@H](C)[C@@H](CN(C)C(=O)Nc2ccc3c(c2)OCO3)Oc2c(NC(=O)Nc3ccc(F)cc3)cccc2C1=O across the screens: -6	0.0	-0.11	-11
# C[C@H]1CN([C@@H](C)CO)C(=O)Cc2cc(NC(=O)Cn3cnnn3)ccc2O[C@@H]1CN(C)Cc1ccc(C(F)(F)F)cc1 across the screens: -13	·	-0.29	33

# A portion of the library; the hit share may differ from the screen's.
